Compound activity as filed in PubChem BioAssay.
HPGD inh: qHTS Assay for Inhibitors of HPGD (15-Hydroxyprostaglandin Dehydrogenase); 15-hydroxyprostaglandin dehydrogenase [NAD(+)] (Homo sapiens), P15428; purified HPGD, NADH fluorescence kinetic, PGE2 substrate; Potency, µM, for inactives: top-dose activity change, negative = inhibition, actives largely listed as inhibitors; actives 4.3% (n = 150,000); AID 894, 2007; active = well fitted inhibition curve with a large enough effect (not every such curve was filed as active); inconclusive = small, poorly fitted or top-dose-only effect, or another doubt; inactive = no such curve, though single readings can be large or run the other way;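 note: top concentration of the series not given in the record; plate controls included wells without enzyme; inactives centre near -10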
Target sequence (P15428 whole entry, looked up): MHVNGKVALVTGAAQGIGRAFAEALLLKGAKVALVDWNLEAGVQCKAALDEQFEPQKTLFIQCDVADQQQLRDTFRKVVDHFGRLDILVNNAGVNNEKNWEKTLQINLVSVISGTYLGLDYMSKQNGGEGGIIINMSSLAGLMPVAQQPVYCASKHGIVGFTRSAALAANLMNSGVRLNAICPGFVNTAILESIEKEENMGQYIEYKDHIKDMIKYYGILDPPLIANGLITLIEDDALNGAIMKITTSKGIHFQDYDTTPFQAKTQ
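NADH formation kinetics: reaction with 30 uM PGE2 and 1 mM NAD+ (final), 20 nM enzyme, Tris-HCl pH 8 with Tween 20, after 15 min compound preincubation at room temperature. Fluorescence change, last versus first of five reads.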
* hit, by the source's call; ? = inconclusive. % is set by controls: 0 for no effect and ±100 for the full control effect; potency is the fitted concentration of half-maximal effect. This is a subset; count on the stated rates, not on these rows.

Structure | HPGD inh
O=C(CNC(=O)c1ccccc1F)NCCOc1cccc(Cl)c1Cl | -4%
CCCCCn1c(SCC(=O)OCC)nc2cc(C(=O)NCc3ccco3)ccc2c1=O | -11%
COc1cc(/C=N/Nc2snc(SC)c2C#N)cc(OC)c1OC | ?
Cc1ccc2nc(Cl)c(/C=N/Nc3nc(C)cc(C)n3)c(=O)n2c1 | -8%
CCOc1ccc(S(=O)(=O)Nc2nc3ccccc3nc2Nc2ccc(N3CCOCC3)cc2)cc1 | -10%
Cc1cccc(N2CCN(C3=NC(=O)C(=C4CCCCC4)S3)CC2)c1 | -6%
Oc1ccccc1Oc1c(F)c(F)nc(N2CCCC2)c1F | ?
Cc1noc(C)c1C(=O)Nc1sc2c(c1C(N)=O)CCCCC2 | ?
O=C(NCc1ccccn1)Nc1ccc(F)cc1 | -8%
O=C(c1cccs1)N1CCOCC1 | -15%
CCOC(=O)Cn1nc(-c2ccccc2)nc1-c1ccccc1 | -10%
COCCN(C(=S)Nc1cc(C)ccc1C)C(C)c1cccnc1 (stereo unspecified) | -2%
COc1ccc(NC(=O)Nc2cccc(OC)c2)cc1 | -9%
Cc1ccc2nc(NC(=O)/C=C/c3ccc4c(c3)OCO4)sc2c1 | -18%
Cc1c(Cl)cnc(NC(=O)COC(=O)CCS(=O)(=O)c2ccccc2)c1Cl | ?

Later entries:
Structure | HPGD inh
COc1ccccc1C1=Nc2cccc3cccc(c23)N1 | -19%
Cc1cccc2cc(CN(Cc3ccco3)C(=O)c3ccncc3)c(=O)[nH]c12 | -13%
Cc1cc(OCn2ccc(C(=O)O)n2)ccc1Cl | -18%
O=C(Cc1cccc2ccccc12)NN1C(=O)C2C(C1=O)C1C=CC2C12CC2 (stereo unspecified) | -5%
O=C(Nc1ccccc1F)c1ccc(OCc2ccccc2)cc1 | -1%
CC1=NNC(=O)C(CC(=O)Nc2ccc(Cl)c(Cl)c2)C1 (stereo unspecified) | 2%
O=C(Nc1ccc(N2CCOCC2)cc1)c1ccncc1 | -8%
CCOC(=O)CC(C)(C)/C(C)=N/Nc1ccc([N+](=O)[O-])cc1[N+](=O)[O-] | -17%
O=C(COc1ccc2ccccc2c1)Nc1ccc(Cc2ccncc2)cc1 | -6%
Fc1ccc(CNC(=S)NC2CCCC2)cc1 | -5%
COC(=O)c1ccc(NC(=O)COC(=O)CSc2nc(C)cc(C)n2)cc1 | -19%
N[C@@H]1CCN(O)C1=O | -2%
CCN(CC)CCNC(=S)Nc1ccc(Cl)cc1 | -7%
Cc1sc2ncnc(SCC(=O)NCC(C)C)c2c1C | 16µM*
COC(=O)c1ccccc1NC(=O)CN1C(=O)c2ccccc2S1(=O)=O | -5%

(list continues)
Structure | HPGD inh
CC(C)(C)c1ccccc1OCCCCCNCCO | -11%
Cc1ccc(S(=O)(=O)N2CCOCC2)cc1C(=O)Nc1nc(-c2cccnc2)cs1 | 0%
CC(C)N=C(NC#N)SCc1ccc(F)cc1 | -13%
CCOc1ccc(N2CC(C(=O)Nc3ccccc3OC)CC2=O)cc1 (stereo unspecified) | -8%
CCOc1ccc(N=c2scc(-c3ccccc3)n2CCO)cc1 | -25%
CCCOC1CCCN(C(=O)c2cc(Cl)c(Cl)cc2C(=O)O)C1 (stereo unspecified) | -8%
Cc1ncc([N+](=O)[O-])n1CC(O)CCl (stereo unspecified) | -9%
COc1cccc(CNC(=O)CN(c2cc(C)cc(C)c2)S(=O)(=O)c2c(C)noc2C)c1 | -9%
CCCOc1ccc(CC(=O)NCC2(c3ccccc3)CCOCC2)cc1OC | -1%
C/C(=N\NC(=O)c1ccc(OC2CCCC2)cc1)c1ccc(C)s1 | -9%
Cc1cccc(C)c1NC(=O)c1ccc(-c2ccc(Cl)cc2Cl)o1 | -14%
COc1ccc(COC(=O)N/N=C(\C)CC(=O)Nc2c(C)cc(C)cc2C)cc1 | -18%
CCOc1cccc(-c2nnc3sc(-c4ccco4)nn23)c1 | -22%
CCN(C(=O)CSc1nnc(-c2ccccc2Cl)n1C1CCCC1)C1CCS(=O)(=O)C1 (stereo unspecified) | -7%
Cc1cccc(C)c1OCC(O)CNC(C)C (stereo unspecified) | -1%

A different layout for part of the listing above:
structure: CCCOc1ccc(CC(=O)NCC2(c3ccccc3)CCOCC2)cc1OC
  HPGD inh = -1%

structure: C/C(=N\NC(=O)c1ccc(OC2CCCC2)cc1)c1ccc(C)s1
  HPGD inh = -9%

(list continues)
Structure | HPGD inh
CCNc1nc(NCC)nc(-n2nc(C)cc2C)n1 | -3%
OCCN(Cc1ccccc1)CC1CCCCC1 | -5%
O=C(COC(=O)COc1ccccc1[N+](=O)[O-])NC1CCCC1 | -5%
CSc1nc2nc(-c3ccccc3)cc(C(F)(F)F)n2n1 | ?
CCOC(=O)C(/C(C)=N/NC(=O)C1CC1c1ccccc1)C(C)C (stereo unspecified) | -7%
Cc1cc(C)cc(NC(=O)c2ccc(S(=O)(=O)C(F)F)cc2)c1 | 0%
CCOC(=O)c1sc2nc3c(cc2c1N)C(=O)CC(C)(C)C3 | -9%
Cc1ccccc1/C(N)=N/OC(=O)/C=C/c1ccccc1 | 1%
CCc1nn(C(C)C(=O)N2CCN(Cc3ccccc3)CC2)c(=O)c2cc3occc3n12 (stereo unspecified) | -15%
O=c1c2ccccc2nc2n1CCN2Cc1ccc(Cl)cc1 | ?
O=C(NCc1cccnc1)Nc1cccc(NC(=O)NCc2cccnc2)c1 | -3%
N#Cc1nc(-c2ccccc2F)oc1NCCc1ccccn1 | ?
Cc1ccc(-n2c(C)cc(/C=C3\NC(=O)NC3=O)c2C)c(C)c1 | ?
Nc1cccc2c1C(=O)N(C(=O)c1cccc(S(=O)(=O)N3CCCCCC3)c1)C2=O | ?
CCOc1ccc2nc(C)cc(C(=O)O)c2c1 | ?

The list goes on:
Structure | HPGD inh
CNc1cc(CSC)nc(SCc2ccc(Cl)c(Cl)c2)n1 | -7%
COCCCNC(=O)COc1ccc(Cl)c(C)c1 | -20%
O=C1C2N=NN(CC(=O)N3N=C(c4cccc5ccccc45)CC3c3ccccc3)C2C(=O)N1c1ccccc1 (stereo unspecified) | ?
Cc1ccc(-c2nc(N)n(C(=O)c3cccnc3)n2)cc1 | -5%
COc1ccc2c(c1)CCc1c(C(=O)Nc3c(C)n(C)n(-c4ccccc4)c3=O)noc1-2 | -26%
C=CCn1c(SCC(=O)Nc2ccc(C(=O)OCC)cc2)nnc1-c1sc(N)nc1C | -10%
COCc1cc(=O)n2c(-c3ccccc3OC)n[nH]c2n1 | -25%
O=C(N/N=C1\CCCc2c1[nH]c1ccc(Cl)cc21)c1ccncc1 | -20%
O=C(c1ccccc1NS(=O)(=O)c1ccccc1[N+](=O)[O-])N1CCOCC1 | -10%
CC(NS(C)(=O)=O)C(c1cccs1)N1CCN(Cc2ccccc2)CC1 (stereo unspecified) | -8%
COC(=O)Cc1nnc(NC(=O)C(C)C)s1 | 0%
O=C(CN1CCOCC1)N/N=C/c1cc2ccccc2nc1Cl | ?
CCOc1ccc(C(=O)COC(C)=O)cc1 | -5%
O=C(Nc1nc2ccc(Cl)cc2s1)c1ccco1 | -29%
CCOC(=O)c1c(C)[nH]c(C(=O)COC(=O)CNC(=O)c2ccc(Br)cc2)c1C | -7%

Following part.
Structure | HPGD inh
O=C(c1ccco1)N1CCN=C1SCc1cccnc1 | -12%
CCC(=O)Nc1cc2c(cc1C(C)=O)OCCO2 | -20%
COc1ccc(CNc2ccccc2SC)cc1OC | ?
CCCOc1ccc(C2c3c(oc4cc(C)c(C)cc4c3=O)C(=O)N2CCCN(C)C)cc1 (stereo unspecified) | -5%
CC(C)C[C@H](NS(=O)(=O)c1ccc(Br)cc1)C(=O)O | -3%
CSc1nnnn1-c1ccc(C(=O)OCC(=O)N2CCOCC2)cc1 | -9%
COc1ccc(CCNC(=O)Cn2cnc3c(cnn3C(C)(C)C)c2=O)cc1OC | 7%
COc1ccc(-c2cc(C(=O)OC(C)C(=O)Nc3c(C)n(C)n(-c4ccccc4)c3=O)c3ccccc3n2)cc1 (stereo unspecified) | ?
O=c1c2c(nc3nc(CCc4ccccc4)[nH]n13)CCC2 | -13%
O=C(/C=C/c1ccco1)Nc1ccc(Oc2ccccc2)cc1 | -26%
C=CCn1c(N)c(S(=O)(=O)c2cccs2)c2nc3ccccc3nc21 | ?
Cc1ccc(C2C(C#N)=C(N)Oc3c2oc(CO)cc3=O)o1 (stereo unspecified) | -21%
CCc1noc2c1/C(=N\O)CC(c1ccccc1)C2 (stereo unspecified) | -15%
COc1ccc(C=NC(CO)C(O)c2ccc([N+](=O)[O-])cc2)cc1 (stereo unspecified) | -16%
O=C(c1ccc(Cl)c([N+](=O)[O-])c1)N(Cc1ccccc1)C1CCS(=O)(=O)C1 (stereo unspecified) | -2%

In the list so far, 7 contain a thiophene ring, fused or not.
Structure | HPGD inh
Cc1noc(C)c1C(=O)Nc1sc2c(c1C(N)=O)CCCCC2 | ?
O=C(c1cccs1)N1CCOCC1 | -15%
Cc1sc2ncnc(SCC(=O)NCC(C)C)c2c1C | 16µM*
C/C(=N\NC(=O)c1ccc(OC2CCCC2)cc1)c1ccc(C)s1 | -9%
CCOC(=O)c1sc2nc3c(cc2c1N)C(=O)CC(C)(C)C3 | -9%
CC(NS(C)(=O)=O)C(c1cccs1)N1CCN(Cc2ccccc2)CC1 (stereo unspecified) | -8%
C=CCn1c(N)c(S(=O)(=O)c2cccs2)c2nc3ccccc3nc21 | ?

Following part.
molecule,HPGD inh
c1ccc(CSCc2nc3ccccc3[nH]2)cc1,-13%
COc1cccc(-n2nnnc2SCC(=O)NCCc2ccccc2)c1,-15%
COC(=O)C[C@H]1c2ccccc2[C@H]2C(=C[C@@H](C)[C@H]3C(=O)N(O)C(=O)[C@H]32)N1C(=O)OC,-10%
COc1ccc(-c2oc3ccccc3c(=O)c2O)cc1OC,?
CCc1c(C#N)c(SCCC(=O)Nc2cccc(OC)c2)nc2c1C(=O)CC(C)(C)C2,-13%
Cc1cccc(NC(=S)N/N=C/c2ccc([N+](=O)[O-])s2)c1,-17%
COC(=O)c1ccc(C(/C=C/[C@@H](C)C(=O)NCc2cc(C)n(C)n2)NC(=O)OCc2ccccc2)cc1 (stereo partly specified),-17%
COc1ccc(-c2cn(-c3ccc(C)cc3)c(=O)n2CC(=O)Nc2cccc(F)c2)cc1,-12%
CC(C)(C)NC(=O)CCC1COc2ccccc2O1 (stereo unspecified),-4%
COc1cc(/C=N/O)cc(Br)c1OCc1ccc(Cl)cc1,-27%
CC(=O)c1c(C)[nH]c(C(=O)CSc2nnc(-c3ccccc3)n2Cc2ccc3c(c2)OCO3)c1C,-3%
CCN(CC)CC(=O)NCC1(c2ccccc2)CCOCC1,-8%
CC[n+]1c(/C=C/Nc2ccccc2)oc2ccccc21,-17%
O=C(CN1CCCc2ccccc21)N/N=C/c1ccccc1O,-12%
Cc1cccc(NC2=NC3(CCCCC3)N=C(N)N2)c1C,-10%
O=C(NC12CC3CC(CC(C3)C1)C2)C12CC3CC(C1)CC(n1cnc(Cl)n1)(C3)C2,-6%
CC(C)C(=O)Nc1ccccc1C(=O)OCC(=O)c1ccc2c(c1)OCCO2,-16%
CSc1ccccc1C(=O)NC1CCCC1,20µM*
O=C(c1cnn2c(C(F)(F)F)cc(-c3ccco3)nc12)N1CCCCCC1,?
Cc1nc2ccc(C(C(F)(F)F)(C(F)(F)F)C(F)(F)F)cc2[nH]1,-7%

The listing continues:
molecule,HPGD inh
Cc1cccc(OCc2nnc(SCC(=O)c3cccs3)n2C)c1C,-17%
O=C(C1CCCCC1)N(CCN1CCCC1)c1nc2ccccc2s1,-14%
CCOC(=O)N1CCN(Cc2nc3c(c(=O)n(C)c(=O)n3C)n2Cc2ccc(F)cc2)CC1,-15%
CCOC(=O)/C=c1\s/c(=C\c2ccc3c(c2)OCCO3)c(=O)n1CC(=O)NCC1CCCO1 (stereo unspecified),-21%
Cc1cc(Nc2cc(C)on2)n2ncnc2n1,-7%
CCNC(=O)C(=O)NCC1OCCCN1S(=O)(=O)c1cccs1 (stereo unspecified),2%
COc1cc(C=O)ccc1OCc1ccccc1Br,-11%
CCCCCCn1cnc2c(c1=O)c1nc3ccccc3nc1n2/N=C/c1ccco1,-23%
Cc1ccccc1N=C/C=C1/C=C(c2ccccc2)OC(C)(C)O1,-19%
CCC(=O)NC(Nc1sc2c(c1C(=O)OC)CCN(C)C2)(C(F)(F)F)C(F)(F)F,-2%
O=C(CSc1nc2ccccc2c(=O)n1-c1cccc(C(F)(F)F)c1)NC1CC1,-5%
c1ccc(OCCSc2nnc3sc4ccccc4n23)cc1,-11%
O=C1CCC(=O)N1c1nc2nc(-c3ccccc3)cc(-c3ccccc3)n2n1,?
O=C(CN(C(=O)Cn1nnc(-c2cccs2)n1)c1cnc2ccccc2c1)NCC1CCCO1 (stereo unspecified),-2%
O=C(CCOc1ccccc1)Nc1cccc(S(=O)(=O)Nc2ccccc2Cl)c1,-11%
COCCNc1oc(-c2ccc(C)cc2)nc1C#N,?
Cn1c(N2CCOCC2)nc2c1c(=O)n(Cc1ccc(Cl)c(Cl)c1)c(=O)n2C,-25%
CCc1nnc(NS(=O)(=O)c2ccc(NC(=S)NC(=O)c3ccc(OC)cc3)cc2)s1,?
CC(=O)c1ccc(NC(=S)N2CC(C)CC(C)C2)cc1 (stereo unspecified),-11%

Fetched by structure from above:
molecule,HPGD inh
COc1cc(/C=N/Nc2snc(SC)c2C#N)cc(OC)c1OC,?
O=C(NC12CC3CC(CC(C3)C1)C2)C12CC3CC(C1)CC(n1cnc(Cl)n1)(C3)C2,-6%
O=C(CN1CCCc2ccccc21)N/N=C/c1ccccc1O,-12%
CCCOc1ccc(C2c3c(oc4cc(C)c(C)cc4c3=O)C(=O)N2CCCN(C)C)cc1 (stereo unspecified),-5%
